S aureus helic – inhibitors of S. aureus replicative helicase, primary screen, biochemical, fluorescence unwinding readout; purified S. aureus helicase, fluorescence unwinding assay; about half of the hits fall short of the stated cut; inhibition, %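 (tested at about 80 µM)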; 120,000 tested, 0.05% active;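 active = both duplicates at 50% or more, or one of them with a favoured structure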;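 also: 0% = mean of negative control wells and 100% = mean of positive control wells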
MgrA DNA FP – S. aureus MgrA activity modulators, primary screen, biochemical, S. aureus Newman, fluorescence polarization; MgrA-DNA binding; AID 602314, 2012; inhibition, %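 (about 10 µg/mL by stock and volumes)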; 84,000 tested, 0.13% active;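 active = above 50% in either of two replicates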;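 also: 0% = protein plus DNA without compound and 100% = DNA alone without protein; higher means less MgrA bound to DNA so lower polarization; one replicate is shown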
Starred values were filed as active, the others as inactive; . = no result given. The list is partial; count on the stated rates, not on these rows.

SMILES	S aureus helic	MgrA DNA FP
S=c1[nH]nc(CCCc2n[nH]c(=S)o2)o1	.	1.8
C(=N\c1nc2ccccc2[nH]1)/N(c1ccccc1)c1ccccc1	15	-1.9
Cc1ccc(C(CNC(=O)CCc2ccccc2)N2CCN(C)CC2)cc1 (stereo unspecified)	-9	.
O=C(CCNS(=O)(=O)c1ccc2[nH]c(=O)ccc2c1)NC1CCCc2ccccc21 (stereo unspecified)	-27	.
Brc1ccc(-c2nn3c(-c4ccccc4)nnc3s2)cc1	5	.
CCOC(=O)c1sc(NC(=O)COc2ccc3c(c2)OCO3)nc1C	7	-6.8
CCOc1ccc(C(=O)Nc2cccc3nsnc23)cc1Br	3	.
O=C(NC(=S)Nc1c(Cl)cccc1Cl)c1cccc([N+](=O)[O-])c1	.	2.7
Cc1ccc(NC(=S)Nc2cccc(C(F)(F)F)c2)cc1NS(C)(=O)=O	.	1.8
COc1ccc(C2OC(=O)CC2C(=O)NC2CCCC(C)C2C)cc1OC (stereo unspecified)	17	.
COC(=O)c1ccc(/N=C/c2cc(C)n(C3CCCC3)c2C)s1	2	.
CCCCc1nc2ccccc2n1CC(=O)Nc1ccccc1C	-25	-2.6
COC(=O)c1ccc(CSc2nnc3ccccn23)o1	-3	.
O=C1CN(CC(=O)Nc2ccc(Cl)cc2)CCN1	11	.
CC(=O)Nc1ccc(C(=O)O)cc1NC(C)=O	.	-0.3
CC(C)CCNC(=O)c1ccc(CS(=O)c2cccc(Cl)c2)o1 (stereo unspecified)	25	.
CC1CCN(C(=O)C23CCC(C)(C(=O)O2)C3(C)C)CC1 (stereo unspecified)	-20	.
CN1CCc2c(sc3c2C(=O)NC(c2ccc(OC(=O)c4ccccc4Cl)cc2)N3)C1 (stereo unspecified)	-14	0.3
CCc1nc2ccccc2n1CCOc1ccccc1	9	.
O=C(c1ccccc1)C(Nc1ccccn1)c1ccccc1 (stereo unspecified)	9	1.6
Cc1c(C(=O)N=Nc2c(O)n(CC(=O)O)c3ccccc23)nnn1-c1nonc1N	-11	.
CC1(C)Cc2nc3n[nH]c(N)c3cc2CO1	10	.
CC(OC(=O)c1cccs1)C(=O)NCC1CCCO1 (stereo unspecified)	1	0.2
CCc1ccc(C(=O)NC(CC(C)C)C(=O)O)cc1 (stereo unspecified)	6	-1.4
CCn1c(CNC(=O)c2ccco2)nnc1SC(C)C(=O)Nc1nc(C)c(C)s1 (stereo unspecified)	2	-3.3
Cc1ccc(S(=O)(=O)NCCSc2nncn2-c2ccc(C)c(Cl)c2)cc1	4	.
CC(NC(=O)Nc1ccc(S(N)(=O)=O)cc1)(C(F)(F)F)C(F)(F)F	9	-1.9
Nc1nc(CCl)nc(N2CCCCC2)n1	8	.
CCOC(=O)c1ccc(-c2ccc(-c3nc4cc(C(=O)OCC)ccc4n3CC)o2)cc1	-17	.
O=C(NCn1nnc(-c2ccncc2)n1)c1ccccc1	11	0.7
CCOc1cc(N2CCOCC2)c(OCC)cc1NC(=O)c1ccccc1	.	-0.6
CCN1CCN(CCCNC(=O)c2oc3ccc(S(=O)(=O)N4CCOCC4)cc3c2C)CC1	7	.
Cc1ccc(-n2cccc2)c(NC(=O)C(c2ccccc2)C2CCCC2)c1 (stereo unspecified)	.	-2.0
Cc1ccc(OC(=O)NC2(C(F)(F)F)Oc3ccccc3O2)cc1	-20	.
CCCN(CCC)C(=O)c1ccc2c(c1)N(Cc1ccccc1)C(=O)CS2=O (stereo unspecified)	17	.
Cc1ccc2[nH]c(=O)c(CNC3CCCC3)cc2c1	1	1.5
COc1ccc(C(N)CCc2ccc(C)o2)cc1 (stereo unspecified)	5	-1.8
FC(F)(F)c1nc(NCCc2ccccn2)c2ccccc2n1	6	.
COc1ccccc1C(=O)Nc1nnc(-c2cccc(C)c2)s1	5	.
CCCOc1ccc(-c2nn(-c3ccccc3)cc2/C=C(\C#N)C(=O)NCc2ccco2)cc1	-11	.
CC1CN(S(=O)(=O)c2cn(C)c(=O)n(C)c2=O)CC(C)O1 (stereo unspecified)	5	.
O=C(c1ccco1)c1cn(-c2ccccc2)nc1C(=O)c1nc2ccccc2s1	19	-0.4
C(=N\Nc1nc2ccccc2[nH]1)/C1CCCCC1	16	.
CC1Cc2scc[n+]2-c2ccccc2N1C=O (stereo unspecified)	1	-6.2
N#Cc1ccc(NC(=O)COC(=O)CSc2ccccc2)cc1	-1	.
O=C(CSc1nc2cccnc2s1)NNS(=O)(=O)c1cc(C(F)(F)F)cc(C(F)(F)F)c1	.	-0.4
C=CCOC(=O)COc1ccc2c3c(c(=O)oc2c1)CCC3	20	.
Cc1c(C(=O)O)oc2c1C(O)CC(C)(C)C2 (stereo unspecified)	6	-4.6
CCN(CC)C(=O)c1oc2ccccc2c1NC(=O)C(C)C	11	.
COc1ccccc1N1CCN(C(=O)/C=C/c2c(Cl)nc3sccn23)CC1	17	.
(next part)
SMILES	S aureus helic	MgrA DNA FP
Cc1cc(NC(=O)CN2CCCCC2)nc2c1c(=O)oc1ccccc12	33	.
O=C(c1cn(-c2ccccc2)nc1-c1cccs1)N(CCO)Cc1ccccc1	-17	-1.8
CC(C)(C)c1cc(CN2CCCC2)cc(C(C)(C)C)c1O	6	-1.2
CCc1ccc(NC(=O)NCc2c(-n3cccc3)sc3c2CCCC3)cc1	26	.
Cc1csc(=O)n1CC(=O)NC1CCCCCC1	-4	.
O=C(NCC1COc2ccccc2O1)c1cc(Cl)sc1Cl (stereo unspecified)	.	-2.8
CC(Nc1nc(-c2ccccc2)c2cc(Br)ccc2n1)C(=O)O (stereo unspecified)	11	5.5
CCC(=O)Oc1ccc2c(C(F)(F)F)cc(=O)oc2c1C	-7	.
Cc1cccc(Cl)c1N1C(=O)C(CC(=O)O)SC1=NC1CCCC1 (stereo unspecified)	.	0.1
CCN(CC(=O)NC1CCS(=O)(=O)C1)C(=O)Cc1ccccc1F (stereo unspecified)	-3	.
CCN(CC)S(=O)(=O)c1ccc(Sc2nc(C)cs2)nc1	-21	.
Cc1ccc(C(F)(F)C(F)(F)c2ccccc2-c2nn[nH]n2)cc1	11	-3.2
Cc1ccc(C(=O)NC(C)Cc2cccs2)c(C)c1 (stereo unspecified)	10	-1.6
OC1(c2ccccc2)CCN(Cc2ccccc2)CC1	0	-0.5
COc1ccc(CNC(=O)c2cc(=O)[nH]c3ccc(S(=O)(=O)N4CCCCC4C)cc23)cc1 (stereo unspecified)	0	-1.8
NC(=O)C1CCN(C(=O)c2cc(-c3ccccc3)on2)CC1	-2	-0.8
COc1cc(C(=O)N2N=C(c3ccccc3)CC2c2ccccc2[N+](=O)[O-])cc(OC)c1OC (stereo unspecified)	.	-0.1
CSc1nc(C)cc(=O)[nH]1	-2	-1.6
O=C1CSC(c2cccs2)N1c1ccccc1 (stereo unspecified)	-8	.
Clc1ccc(-c2csc3[n+]2CCS3)cc1	12	1.9
O=C(OC1CCOC1=O)c1cccc(Cl)c1Cl (stereo unspecified)	-13	-3.8
CC(C)(Oc1ccc(Cl)cc1)C(=O)Oc1ccc(-c2nnco2)cc1	-4	.
COc1cc2c(cc1OC)CN(Cn1cnc3ccccc31)CC2	-11	.
CCc1ccc(C(=O)Nc2ccc(N3CCCC3)cc2)cc1	0	-2.2
O=C1/C(=C/c2ccc(O)cc2)SC(=S)N1CCc1ccccc1	-96	-4.7
CCCc1c(C)[nH]c2nc3ccccc3n2c1=O	13	-0.9
CC1CCN(C(=S)Nc2ccccc2)CC1	-4	.
CCOc1ncccc1C(=O)Nc1cccc(Cl)c1Cl	12	-3.3
Cc1ccc(C(=O)NC2CCN(Cc3ccccc3)CC2)cc1	.	0.0
CCOC(=O)c1sc(NC(=O)c2cc3n(n2)C(C(F)(F)F)CC(c2ccc4c(c2)OCO4)N3)c(C(=O)OCC)c1C (stereo unspecified)	.	-0.3
COc1cc(CNCc2ccc(C)cc2)cc(OC)c1	11	.
O=S(=O)(c1ccccc1)N1CCN(c2cc(C(F)(F)F)nc3ccccc23)CC1	.	-3.2
CCOC(=O)Cn1c(=O)oc2cc(S(=O)(=O)N3CC(C)CC(C)C3)ccc21 (stereo unspecified)	-17	.
O=C(N[C@@H](Cc1ccccc1)C(=O)Nc1nccs1)c1cccs1	-4	.
CC1CCCCN1C(=O)CSc1ccc2ccccc2c1 (stereo unspecified)	12	-3.6
O=C1N(CN2CCCCC2)c2ccc(Br)cc2C12OCCO2	-16	.
O=C(/C=C/c1ccccc1F)CN1C(=O)c2ccccc2C1=O	0	.
O=C(Nc1c2c(nn1-c1ccccc1)CSC2)C1CC(=O)N(c2ccccc2)C1 (stereo unspecified)	4	.
COc1ccc(OC)c(NC(=O)CCC(=O)O)c1	10	.
Clc1ccccc1-c1nnc(-c2ccncc2)o1	-17	.
CCCN=c1ssc(=O)n1CCC	.	6.2
Cc1ccc(-n2c(Sc3cnccn3)nnc2-c2ccccc2)cc1C	14	.
O=C1NNC(=S)C1C1CC1 (stereo unspecified)	-1	.
COc1cc(-c2nc3ccccc3c(=O)n2OC(=O)c2ccccc2Cl)cc(OC)c1OC	.	-0.3
N#Cc1cccc(NC(=O)CSc2ncccn2)c1	-1	.
CC(=O)n1c2cc(C#N)c(C#N)cc2oc2nc3ccccc3nc2c2ccccc21	11	.
COC(=O)c1ccc(Nc2cc(=O)[nH]c(=O)[nH]2)cc1	5	2.3
O=C(Oc1ccc(C2SCCS2)cc1)c1cccs1	.	-1.1
O=C(O)/C=C/CC(=O)O	-7	.
CC1CCCCN1Cc1c(O)ccc2c(=O)c(-c3ccccc3)coc12 (stereo unspecified)	6	0.6

Pulled by structure from above:
SMILES	S aureus helic	MgrA DNA FP
CC(=O)n1c2cc(C#N)c(C#N)cc2oc2nc3ccccc3nc2c2ccccc21	11	.
COc1cc(-c2nc3ccccc3c(=O)n2OC(=O)c2ccccc2Cl)cc(OC)c1OC	.	-0.3
O=C(O)/C=C/CC(=O)O	-7	.

Next part:
SMILES	S aureus helic	MgrA DNA FP
CSC1=NCCN1CC(=O)c1ccc(F)cc1	.	5.0
COC(=O)/C=c1\sc2n(c1=O)CCN=2	8	0.6
c1csc(CN=C2SCCN2C2CCCCC2)c1	5	.
N#Cc1cnc(SCC(=O)Nc2ccccc2C(F)(F)F)nc1N	1	.
O=C(CCn1c(=S)oc2ccccc21)Nc1ccccc1F	2	-1.2
CCOC(=O)c1cccc(OCC(O)CNCC(c2ccc(OC)cc2)N2CCCC2)c1 (stereo unspecified)	-4	.
O=C(O)CNC(=O)c1ccc(Oc2ccccc2)cc1	3	.
CC(Sc1nc2cc(Cl)ccc2c(=O)n1Cc1ccco1)C(=O)Nc1ccc(Cl)cn1 (stereo unspecified)	27	.
Cc1cc(OCC(=O)Nc2ccc(OC(F)(F)F)cc2)c2ccccc2n1	.	-9.1
CCCCn1c(SCn2nnc3ccccc3c2=O)nc2cc(S(=O)(=O)N3CCCCC3)ccc21	19	.

Whole records, looked up by structure:
Profile of `c1csc(CN=C2SCCN2C2CCCCC2)c1` = S aureus helic = 5; MgrA DNA FP = .
Profile of `CCN1CCN(CCCNC(=O)c2oc3ccc(S(=O)(=O)N4CCOCC4)cc3c2C)CC1` = S aureus helic = 7; MgrA DNA FP = .

Continuation.
SMILES	S aureus helic	MgrA DNA FP
CN1CCN(Cc2nc(N)nc(Nc3ccccc3)n2)CC1	6	-0.8
CN(C)C(=S)Oc1ccc2c(C(F)(F)F)cc(=O)oc2c1	.	1.9
Cc1ncsc1CCOC(=O)c1ccc2c(c1)S(=O)(=O)c1ccccc1C2=O	9	.
Cc1onc(-c2ccccc2Cl)c1C(=O)Nc1nnc(-c2cccc([N+](=O)[O-])c2)s1	.	0.4
CSC(=CC(=O)c1ccco1)SC	5	.
Cc1ccc(CNC(=O)Cn2c(=O)n(-c3ccc(C)c(C)c3)c(=O)c3c(C)c(C)sc32)cc1	8	-0.2
CN(CC(=O)Nc1ccc(F)c(F)c1F)CN1C(=O)C2CC=CCC2C1=O (stereo unspecified)	7	.
CC(OC(=O)CCc1nc(=O)c2ccccc2n1C)C(N)=O (stereo unspecified)	11	.
COc1ccc(CNC(=O)CN(C)c2ccccc2)cc1	5	.
CCOC(=O)C1CCCCN1S(=O)(=O)c1ccc2ccccc2c1 (stereo unspecified)	1	.

A draw from above in order of length of the SMILES, highest first.
SMILES	S aureus helic	MgrA DNA FP
Cc1onc(-c2ccccc2Cl)c1C(=O)Nc1nnc(-c2cccc([N+](=O)[O-])c2)s1	.	0.4
Cc1ncsc1CCOC(=O)c1ccc2c(c1)S(=O)(=O)c1ccccc1C2=O	9	.
CC(OC(=O)CCc1nc(=O)c2ccccc2n1C)C(N)=O (stereo unspecified)	11	.
CN1CCN(Cc2nc(N)nc(Nc3ccccc3)n2)CC1	6	-0.8
COc1ccc(CNC(=O)CN(C)c2ccccc2)cc1	5	.

Following part.
SMILES	S aureus helic	MgrA DNA FP
CC(C)=NOCC(=O)Nn1c(COc2c(C)cccc2C)nc2ccccc2c1=O	10	.
Cc1cc(C(=O)NCc2cccn2C)nn1C	.	0.8
CC(C)(C)c1ccc(C2CC(=O)C(C=NCCN3CCNCC3)=C(O)C2)cc1 (stereo unspecified)	-23	.
O=C(NC(=O)C(F)(F)F)Oc1ccc(Cl)cc1	3	.
Nn1c(-c2ccncc2)nncc1=O	23	.
O=S(=O)(c1cc(Br)c(Br)s1)N1CCN(Cc2ccc3c(c2)OCO3)CC1	-14	.
OC1CCC(n2c(-c3ccccc3)nc(=S)c3c2CCCC3)CC1 (stereo unspecified)	-12	0.9
